From PubChem
gsp ag: qHTS for Agonist of gsp, the Etiologic Mutation Responsible for Fibrous Dysplasia/McCune-Albright Syndrome: qHTS | gsp mutant cells, cAMP HTRF, 30 min; control for the full effect not named in the record | AID 624287, 2012 | 0.13% of 340,000 active | Potency, µM (top dose mostly 76.9 µM), inactives show top-dose activation (cAMP increase), usual class: activators; active = well fitted activation curve with a large enough effect; inconclusive = small, poorly fitted or top-dose-only effect, or another doubt; inactive = no such curve, though single readings can be large or run the other way; cell line not stated here;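 also: phosphodiesterase inhibitor Ro 20-1724 added with compounds to block cAMP breakdown; potency is read from the fitted curve at half-maximal effect; nearly all actives have a fitted effect of over 60% in size; about a fifth of the inactives were tested at one dose only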
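Cells in DMEM/10% FBS with G418 were pretreated with compounds in DMSO plus […] (300 uM stock) for 30 min at 37C. cAMP was measured by HTRF (cAMP-d2 plus anti-cAMP antibody-K) after 30 min at room temperature.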
Menin-MLL FL inh: qHTS Assay for Inhibitors Targeting the Menin-MLL Interaction in MLL Related Leukemias: Competition With Fluorescein Labeled MLL-derived Peptide. Fluorescence polarization, fluorescein-MLL peptide displacement from menin. FP activity change, % at 61.4 µM. 290,000 tested, under 10 active. AID 1766, 2009; inconclusive = falling polarisation curve, or a change in total fluorescence; inactive = total fluorescence flat and polarisation flat or rising; no compound was filed as active; the % refers to the polarisation; negative = inhibition;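 also: % of control where 0% means no effect; inhibitors lower the polarisation; unlabelled MLL peptide was the positive control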
Sfp PPTase inh: qHTS Assay for Inhibitors of Bacillus subtilis Sfp phosphopantetheinyl transferase (PPTase) | 4'-phosphopantetheinyl transferase ffp (Bacillus subtilis), Q9F4F7 | Biochemical Sfp PPTase activity, qHTS | Potency, µM, inactives show max response, negative = inhibition, usual class: inhibitors | 3.5% of 310,000 active; active = well fitted inhibition curve with a large enough effect; inconclusive = small, poorly fitted or top-dose-only effect, or another doubt; inactive = no such curve, though single readings can be large or run the other way;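 also: the enzyme is Sfp with the accession as filed and its product quenches rhodamine fluorescence; potency is read from the fitted curve at half-maximal effect; 0% = enzyme reaction without inhibitor and -100% = no enzyme wells; top concentration of the series not given in the record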
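Fluorescence-quenching assay: 15 nM Sfp-PPTase preincubated 15 min at room temperature with compound, then 5 uM rhodamine-CoA and 12.5 uM BHQ-2-labelled YbbR peptide added. Fluorescence (ex 525/em 598 nm) read at start and after 30 min; difference gives rate.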
gsp antagonist: qHTS for Antagonists of gsp, the Etiologic Mutation Responsible for Fibrous Dysplasia/McCune-Albright Syndrome: qHTS; 0.4% of 340,000 active; Potency, µM (titrated, usually from 76.9 µM), without a hit: at the top dose activity change, negative = inhibition, hits mostly inhibitors; gsp-mutant cells, cAMP HTRF, 30 min; control for the full effect not named in the record; AID 624288, 2012; active = falling curve of any shape with a large fitted effect; inconclusive = falling curve, mostly with a smaller effect; inactive = flat or rising curve; cell line not stated here;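 also: intracellular cAMP measured with PDE inhibitor Ro 20-1724 present during compound exposure; potency is read from the fitted curve at half-maximal effect; % is scaled to controls: 0 for no effect and ±100 for the full control effect; nearly all actives have a fitted effect of over 65% in size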
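Cells in G418 medium, seeded 16-24 h, 37C; buffer exchange to DPBS + 1 mM CaCl2, 0.5 mM MgCl2, 0.05% BSA; cpds in DMSO + […] (300 uM stock), 30 min 37C; HTRF cAMP detection.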
ClpP mod: qHTS Assay for Activators of ClpP. AID 651965, 2013. ATP-dependent Clp protease proteolytic subunit (Bacillus subtilis (strain 168)), P80244. Potency, µM (doses to about 57.5 µM), without a hit: at the highest dose activity change, negative = active. 1.9% of 340,000 active. purified B. subtilis ClpP, FRET peptide cleavage, 20 min; active = well fitted falling curve with a large enough effect; inconclusive = small, poorly fitted or top-dose-only effect; inactive = no such curve, though single readings can be large or run the other way; also: potency is read from the fitted curve at half-maximal effect; the source files actives as falling curves though it sought activators and does not explain the sign; nearly all actives have a fitted effect of over 65% in size; many hits overshoot -100%
Target sequence (P80244 whole entry, looked up): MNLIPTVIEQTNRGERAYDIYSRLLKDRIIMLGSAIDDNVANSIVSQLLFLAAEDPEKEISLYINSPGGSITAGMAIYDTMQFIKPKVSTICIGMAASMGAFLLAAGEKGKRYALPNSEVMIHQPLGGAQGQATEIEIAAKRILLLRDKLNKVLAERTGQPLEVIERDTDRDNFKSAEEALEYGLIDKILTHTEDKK
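Buffer: 100 mM Tris/HCl pH8, 100 mM KCl, 0.05% low protease BSA, 2.5% glycerol, 0.01% Tween-20. ClpP 10 microg/mL final; 20 min RT; delta FRET normalized to ADEP and DMSO controls.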
CtBP-E1A inh: qHTS Assay for Inhibitors of the CtBP/E1A Interaction. AlphaScreen GST-E1A/His-CtBP binding, 1536-well; stronger effect = lower value; control for the full effect not named in the record. 0.49% of 340,000 active. CtBP / adenovirus E1A interaction (AlphaScreen). activity change, % (no concentration beside the values); in the data active means activity change below about -65%; inconclusive means about -30% to -65%; inactive means above about -30%; also: % is scaled to controls: 0 for no effect and ±100 for the full control effect; compound concentration not given in the record
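Protein mix (5X: 125 nM each GST-E1A, His-CtBP) was incubated with pinned compound 2 h at 37 deg C in dark, in 50 mM Tris pH 8.0 buffer with 300 mM NaCl. Glutathione donor and nickel acceptor beads followed; AlphaScreen signal read after 1 h.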
TRPV1 PAM: HTS Assay for Compounds that Act as Potentiators of the Vanilloid Receptor 1; Transient receptor potential cation channel subfamily V member 1 (Homo sapiens), Q8NER1; TRPV1-expressing cells, Fluo-8 calcium influx, capsaicin EC20 potentiation; host cell line not named in the record; control for the full effect not named in the record; potentiation, % at 8.33 µM; 0.02% of 320,000 active; AID 540277, 2011; active means potentiation above 80%; inconclusive means 30% to 80%; inactive means below 30%; also: 0% is about no effect
Target sequence (Q8NER1 whole entry, looked up): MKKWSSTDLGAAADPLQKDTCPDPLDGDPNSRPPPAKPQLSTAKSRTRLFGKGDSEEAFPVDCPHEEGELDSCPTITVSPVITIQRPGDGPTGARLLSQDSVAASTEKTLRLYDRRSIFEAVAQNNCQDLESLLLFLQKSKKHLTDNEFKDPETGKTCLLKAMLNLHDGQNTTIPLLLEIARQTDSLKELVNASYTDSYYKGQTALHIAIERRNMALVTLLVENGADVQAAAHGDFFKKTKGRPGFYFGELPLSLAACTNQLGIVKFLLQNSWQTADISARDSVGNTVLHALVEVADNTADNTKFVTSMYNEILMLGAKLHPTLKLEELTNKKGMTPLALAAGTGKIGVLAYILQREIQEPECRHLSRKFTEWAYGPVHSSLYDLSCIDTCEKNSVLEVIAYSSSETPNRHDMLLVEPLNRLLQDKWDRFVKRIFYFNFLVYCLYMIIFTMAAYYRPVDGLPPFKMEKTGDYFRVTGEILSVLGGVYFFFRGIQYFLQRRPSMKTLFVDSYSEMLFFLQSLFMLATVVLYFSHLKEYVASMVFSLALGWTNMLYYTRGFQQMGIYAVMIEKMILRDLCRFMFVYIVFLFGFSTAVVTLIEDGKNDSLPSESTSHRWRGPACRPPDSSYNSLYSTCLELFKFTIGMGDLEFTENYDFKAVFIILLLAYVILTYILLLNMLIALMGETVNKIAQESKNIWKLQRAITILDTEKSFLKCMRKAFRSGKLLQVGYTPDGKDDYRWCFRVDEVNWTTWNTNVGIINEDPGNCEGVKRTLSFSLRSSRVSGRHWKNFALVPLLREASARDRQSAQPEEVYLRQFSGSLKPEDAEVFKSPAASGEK
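Cells expressing TRPV1 were dye-loaded with Fluo-8 and read kinetically: 10 s baseline, 3 min after compound (agonist portion), then 2 min after EC20 capsaicin (allosteric enhancer portion). Calcium-bound dye fluorescence at 480/520 nm.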
Numbers without * were called inactive; ? = inconclusive; nt = not tested or not shown; & = joins results of further samples; [ ] = dose if it differs, or a comment.

SMILES | gsp ag | Menin-MLL FL inh | Sfp PPTase inh | gsp antagonist | ClpP mod | CtBP-E1A inh | TRPV1 PAM
COc1cc(OC)cc(-c2c(C#Cc3ccsc3)c3cc(-c4ccc(OC)cc4F)ccc3n2C)c1 | -4% | nt | nt | -4% | 4.4% | -19 | nt
COc1ccc(NC(=O)CCc2nnc3ccc(N4CCC(C)CC4)nn23)cc1 | ? | nt | 11% | 3% | -0.2% | nt | 25
c1ccc(-n2cnnc2SCc2cn3cccnc3n2)cc1 | ? | 0.1 | -5% | 9% | ? | 46 | 0
CCOC(=O)C1CCN(C(=O)CNC(=O)c2nn(-c3ccc(OC)c(OC)c3)c(=O)c3ccccc23)CC1 | 25% | -2.0 | 35%[activator] | -13% | nt | 1 | ?
O=C(O)c1ccc2cccnc2c1O | 3%[15.4 µM] | 1.8 | 20µM* | 10% | nt | -16 | 1
CC(=O)Nc1ccccc1/C=C/c1ccc2c(C)ccc(O)c2n1 | -10% | 1.6 | -10% | -7% | 0.8% | 0 | 4
COc1cc2c(cc1OC)C(C)N(CC(=O)Nc1ccc(S(=O)(=O)N3CCCC3)cc1)CC2 (centres undefined) | -9% | nt | 2% | ? | -4.8% | -3 | -8
O=C1/C(=C/c2ccncc2)SC(=S)N1Nc1ccccc1 | 0%[15.4 µM] | 11 | ? | -18% | nt | -12 | 0
O=C(O)c1cc(S(=O)(=O)N2CCCCC2)sc1Cl | 0%[15.4 µM] | 2.0 | 5% | 14% | -1.3% | 3 | 6
CC(OC(=O)CN1C(=O)c2ccccc2C1=O)C(=O)NC1CCCCC1 (centres undefined) | -95%[inhibitor] | 0.5 | 12% | 8% | -3.0% | -3 | 1
Cc1cc(C)c(N(C(=O)Cn2nnc3ccccc32)C(C(=O)NC(C)(C)C)c2ccsc2)c(C)c1 (centres undefined) | 2% | 0.3 | -1% | 4% | 3.5% | 2 | -5
Cc1ccc(NC(=O)C(C)OC(=O)c2nc(Cl)ccc2Cl)cc1S(=O)(=O)N1CCOCC1 (centres undefined) | -15% | nt | nt | -25% | -4.7% | -10 | nt
CC(C)NC(=O)Cn1c(SCC(=O)c2ccc(F)cc2)nc2ccccc21 | -4% | -1.2 | -20% | 7% | -2.8% | 8 | 15
O=S(=O)(c1cccs1)N1CCC(CO)(Cc2ccc(Cl)cc2)CC1 | -19% | -3.4 | 7% | 1% | nt | 11 | -10
O=C(COc1ccc(S(=O)(=O)N2CCCC2)cc1)N1CCCCC1 | -9% | -1.1 | -1% | 3% | nt | 3 | -2
CC(c1ccccc1)N1C(=O)c2ccc(C(=O)NCc3ccco3)cc2C1=O (centres undefined) | 1% | -0.8 | -8% | -10%[15.4 µM] | -0.2% | -4 | -3
Cc1cccc(C)c1-n1nnnc1C(C)(C)N1CCN(N=O)CC1 | -31%[inhibitor][15.4 µM] | 3.9 | 2% | 1% | nt | 2 | -3
Cc1c(C)n2c(SCC(=O)NC3CCCC3)nnc2[nH]c1=O | -8%[15.4 µM] | nt | nt | 14% | nt | 12 | -2
COc1ccc(-c2csc(NC(=S)NC(=O)c3cc4ccccc4o3)n2)cc1Br | -38%[inhibitor] | -0.1 | -10% | 12% | 0.6% | 1 | -7
Cc1ccc(S(=O)(=O)NN=Cc2c(O)ccc3ccccc23)cc1 | -33%[inhibitor] | nt | nt | nt | 3.6% | 1 | nt
C#CCNC(=O)C1=C[C@@H](c2ccccc2)C[C@@H](OCc2ccc(CO)cc2)O1 | -11% | 0.3 | 3% | -17% | -6.5% | 4 | -2
CC(C)CC1(C2CCCC2)NC(=O)NC1=O (centres undefined) | -28% | nt | nt | 7% | nt | 8 | nt
CCc1cc(=O)oc2cc(OCC(=O)N(CC)CC)c(Cl)cc12 | -14% | 0.6 | 0% | -1% | 4.0% | 3 | 18
COc1ccc(OC)c(NC(=O)C(=O)N/N=C(\C)CC(=O)Nc2ccc(Cl)cn2)c1 | 0% | nt | 8% | -7% | 83% | -4 | -3
CCOC(=O)C1(Cc2cccc(OC)c2)CCN(Cc2cccc(OC)c2OC)CC1 | -9%[15.4 µM] | -3.1 | 10% | 0% | nt | nt | -2

New compounds follow:
SMILES | gsp ag | Menin-MLL FL inh | Sfp PPTase inh | gsp antagonist | ClpP mod | CtBP-E1A inh | TRPV1 PAM
Cc1cc2cc(C(c3nnnn3Cc3ccco3)N3CCc4ccccc4C3)c(=O)[nH]c2cc1C (centres undefined) | 0% | ? | 11µM* | -17% | -26% | 15 | 25
N/N=C(\c1ccccc1)C12CN3CN(CN(C3)C1)C2 | -17% | 0.0 | 4% | 9% | nt | -13 | -12
COc1cc2c(cc1OC)CN(S(=O)(=O)c1cccs1)CC2 | -10% | -2.4 | -12% | -8% | 1.1% | 6 | -3
C=CCC1(CC=C)CCCN1C(=O)c1cc(COc2ccc(F)c(F)c2)on1 | ? | -2.7 | -3% | -3% | 0.1% | 48 | 30
O=S(=O)(Nc1ccc(Cc2ccncc2)cc1)c1ccc(Br)cc1 | -14% | -0.6 | 12% | -6% | 0.3% | -6 | 10
Cc1cc(S(=O)(=O)N2CCN(CC(=O)NC(C)(C#N)C3CC3)CC2)ccc1Br (centres undefined) | -11%[15.4 µM] | nt | nt | -4% | nt | 5 | -11
O=c1[nH][nH]c(C(F)(F)F)c1C=Nc1ccccc1Cl | -3% | 8.7 | 9% | -8% | 0.7% | 5 | 3
CCc1c(C(=O)NNC(=S)Nc2ccc(S(=O)(=O)Nc3ncccn3)cc2)csc1C | -42%[inhibitor] | -0.1 | 18% | 3% | 5.4% | -16 | -1
CC(C(=O)NCCCc1ccccc1)n1cccc1C(=O)c1ccccc1 (centres undefined) | -1% | nt | 1% | -15% | 0.3% | 0 | -12
CC(=O)Nc1ccccc1NC(=O)C/C(C)=N/NC(=O)c1ccccn1 | ? | -2.6 | -11% | 4% | -0.7% | ? | -4
CCCC(=O)Nc1c(C(=O)OCC)oc2ccccc12 | 6%[15.4 µM] | -0.4 | 8% | 8% | -2.0% | -12 | 11
Cc1cccc(NC(=O)COc2coc(CN3CCc4ccccc4C3)cc2=O)c1 | 0% | nt | nt | -9% | -6.4% | -24 | -6
CCOc1ccc(CCNC(=O)C2CCN(S(=O)(=O)CC)CC2)cc1OCC | -26% | 4.4 | 18% | 3% | 0.3% | 15 | 5
Oc1c(C(c2ccc(F)cc2)N2CCc3ccccc3C2)sc2ncnn12 (centres undefined) | ? | 0.2 | -12% | 2% | -3.6% | -1 | -8
CC1Cc2ccccc2N1C(=O)CSc1nn2c(=O)c(C(C)(C)C)nnc2s1 (centres undefined) | 9% | -4.1 | 10% | -34% | -1.4% | -2 | 7
O=C(COc1cc2oc(=O)c3c(c2cc1Cl)CCC3)Nc1cccnc1 | ? | 0.7 | 11% | 16% | -15% | -5 | ?
O=C(C[C@@H]1C/C=C/CC[C@@H](Cc2ccc(F)cc2)C(=O)OC[C@H](Cc2ccccc2)NC1=O)N[C@H](CO)Cc1ccccc1 | -23% | nt | nt | -12% | 1.4% | 5 | nt
Cc1[nH]c2ccccc2c1/C=N/NC(=O)Cc1cccs1 | 0% | 0.0 | 4% | -1% | 1.2% | -2 | 5
Cc1cc(=O)n2c3ccccc3n(CC(O)CN3CCOCC3)c2c1C#N (centres undefined) | -2% | 0.8 | 12% | -7% | nt | -9 | -1
Cc1ccc(-n2nc(-c3ccco3)cc2C(=O)O)cc1 | ? | ? | 22µM* | -17% | -9.9% | 1 | -1
FC(F)(F)c1nc2ccccc2c2nc3ccccc3n12 | 5%[15.4 µM] | -0.6 | 9% | 9% | nt | 13 | 7
C=CCNc1oc(-c2ccco2)nc1S(=O)(=O)c1ccccc1 | -8%[15.4 µM] | 5.4 | -19% | -3% | 1.5% | 4 | 18
CCC(Sc1nc(C)cc(C)n1)C(=O)Nc1ccc(S(N)(=O)=O)cc1 (centres undefined) | -12%[15.4 µM] | 0.3 | -1% | 8% | nt | -2 | -9
CCCCN1CC[C@H]2C=CC[C@@H](C(=O)Nc3ccccc3)[C@H]2C1=O | nt | nt | nt | 4% | -1.6%&0.7% | 1 | nt
Cc1ccc(C2c3c(oc4ccccc4c3=O)C(=O)N2c2nnc(C(C)C)s2)o1 (centres undefined) | 3% | 1.4 | -6% | -16% | -2.2% | 2 | -6
Cc1cc(C(F)(F)F)nn1CC(=O)N1CCCC1 | -11% | -1.6 | 15% | -7% | 32% | -6 | -10
CCOc1cc(C(=O)N(CC)CC(=O)Nc2ccc3c(c2)OCCO3)ccc1OC | ? | nt | nt | 2% | -2.8% | -24 | -1
CCOC(=O)C1CCN(Cc2ccc(-c3ccccc3)cc2)CC1 | 10% | 0.9 | -5% | 4% | -0.1% | 1 | -3
O=C(CN1CCCCC1)N/N=C/c1ccc(Cl)cc1 | 1% | 0.7 | 2% | -2% | 1.0% | nt | 3

Arranged by formula weight (rising): part of the list above.
SMILES | gsp ag | Menin-MLL FL inh | Sfp PPTase inh | gsp antagonist | ClpP mod | CtBP-E1A inh | TRPV1 PAM
Cc1ccc(-n2nc(-c3ccco3)cc2C(=O)O)cc1 | ? | ? | 22µM* | -17% | -9.9% | 1 | -1
FC(F)(F)c1nc2ccccc2c2nc3ccccc3n12 | 5%[15.4 µM] | -0.6 | 9% | 9% | nt | 13 | 7
O=c1[nH][nH]c(C(F)(F)F)c1C=Nc1ccccc1Cl | -3% | 8.7 | 9% | -8% | 0.7% | 5 | 3
Cc1ccc(C2c3c(oc4ccccc4c3=O)C(=O)N2c2nnc(C(C)C)s2)o1 (centres undefined) | 3% | 1.4 | -6% | -16% | -2.2% | 2 | -6
